Screening data: PubChem, National Center for Advancing Translational Sciences (NCATS)
VACV mCherry inh = vaccinia inhibition (mCherry reporter); Vaccinia virus mCherry reporter infection, fluorescence; about a quarter of the inactives have no number; Potency, µM (series often up to 36.5 µM), inactives show at the top dose activity change, negative = inhibition, most hits filed as inhibitors; 310,000 compounds, 0.63% hits; active = well fitted inhibition curve with a large enough effect; inconclusive = small, poorly fitted or top-dose-only effect; inactive = no such curve, though single readings can be large or run the other way; tested in A549 cells; note: nearly all actives have a fitted effect of over 35% in size; inactives centre near -10
Vaccinia Venus = vaccinia inhibition (Venus reporter); Potency, µM (series often up to 36.5 µM), without a hit: at the highest dose activity change, negative = inhibition, actives largely listed as inhibitors; AID 720580; Vaccinia virus Venus reporter expression, fluorescence; 330,000 compounds, 0.46% hits; active means well fitted inhibition curve with a large enough effect; inconclusive means small, poorly fitted or top-dose-only effect; inactive means no such curve, though single readings can be large or run the other way; tested in A549 cells; note: nearly all actives have a fitted effect of over 30% in size; inactives centre near -10
* hit, by the source's call; i = inactive; ? = inconclusive; · = no result given; & = joins results of further samples; [ ] = another dose, or the depositor's remark. % is set by controls: 0 for no effect and ±100 for the full control effect; potency is the fitted concentration of half-maximal effect. This is a random part of the collection; any-hit rate near 0.82%.

SMILES	VACV mCherry inh	Vaccinia Venus
COc1cc(C(=O)N2CCCCC2c2cc(C(=O)N3CCOCC3)no2)cc(OC)c1C (stereo not drawn)	-9%	-20%
COCCCn1c(=NC(C)=O)c(C#N)cc2c(=O)n3cccc(C)c3nc21	i	-2%
C=CCSc1nc(O)c(CC)c(=O)n1C(C)CC (stereo not drawn)	-7%	0%
Nn1c(-c2cccc(O)c2)nnc1-c1cccc(O)c1	-12%	-6%
Cn1cc(CN2C[C@H]3CC[C@H]2C3)c(-c2ccccc2F)n1	-7%	-9%
O=C(O)c1cccc(Nc2ccnc(Nc3cccc(C(=O)O)c3)n2)c1	i	-16%
COc1ccc(OC)c(-n2nnc(-c3nc(-c4ccc5c(c4)OCO5)no3)c2C)c1	-9%	-5%
COc1ccc(CNS(=O)(=O)c2cc3c(cc2Cl)NC(=O)CO3)cc1	-5%	-3%&-11%
CCCCCCSc1cc(-c2nc3ccc(C)cn3c2NCc2ccccc2)ccc1OC	-15%	-22%&-3%
NS(=O)(=O)c1cc(Cl)c(Cl)c(S(N)(=O)=O)c1	-15%	-14%
O=C(NCc1cccc(C(F)(F)F)c1)c1cccc2c1C(=O)c1ccc(N3CCC(Cc4ccccc4)CC3)cc1S2(=O)=O	-17%	8%
CC(C)Cc1oc(C(=O)O)cc1CN1CCOCC1	-11%	-2%
O=C(NC1CC1)c1cccc(NC(=O)C2CCCC2)c1	i	0%
Cc1cccc(N2C(=O)c3ccccc3C2=O)n1	-14%	-10%
COC(=O)c1ccc(C(=O)OC)c(NC(=S)N2CCOCC2)c1	-5%	-3%
COc1ccccc1C(CNC(=O)COc1ccccc1C)N1CCCC1 (stereo not drawn)	i	-12%
OC(CN1CCCCC1)Cn1c2ccccc2c2cc(Br)ccc21 (stereo not drawn)	-1%	?
CN(C)S(=O)(=O)c1ccc(Cl)c(C(=O)Nc2ccccc2[N+](=O)[O-])c1	-5%	-21%
Cc1[nH]c(-c2ccc(F)cc2)cc1C(=O)N1CCN(c2cccc(Cl)c2)CC1	?	-29%
CN1CCN(CCCNC(=O)CCC(=O)N2CCOc3ccccc32)CC1	i	-5%
CC(C)(C)OC(=O)N1CCC(c2c(C(=O)N3CCN(c4ccccn4)CC3)cnn2-c2ccccc2)CC1	-12%	-11%
Cc1cc(NC(=O)CS(=O)(=O)c2cn(C)c3ccccc23)no1	-13%	-1%
Cc1cc(Nc2ccc(F)cc2F)n2ncnc2n1	-9%	-1%
CCC(O)(CC)C(=O)NN(C(=O)CCl)c1ccccc1	-9%	-17%
COc1ccc(CCN2CC(C(=O)NCCc3cn[nH]c3)CCC2=O)cc1 (stereo not drawn)	i	-13%
COc1ccc(NC(=O)CSc2oc(-c3cccs3)nc2S(=O)(=O)c2ccc(Br)cc2)c(OC)c1	-14%	1%
Cc1cc(C)c2c(=O)cc(C(=O)Nc3ccc(S(=O)(=O)Nc4onc(C)c4C)cc3)oc2c1	-9%[7.34 µM]	-4%[7.34 µM]
CN(Cc1nc(-c2ccc(Cl)cc2)no1)S(=O)(=O)c1ccccc1	-5%	0%
O=C(N/C(=C\c1ccccc1Cl)C(=O)N1CCOCC1)c1ccc([N+](=O)[O-])cc1	-14%	-15%
O=C1/C(=C\c2ccc3c(c2)OCO3)CCC/C1=C/c1ccc2c(c1)OCO2	·	-14%
COc1cc(C(=O)NCCOc2cccc3cccnc23)cc(OC)c1OC	i	-5%
COc1ccc(NC(=O)C2CC(c3ccc(Cl)cc3)=NO2)cc1OC (stereo not drawn)	-6%	-19%
Cc1ccc(C(=O)NCC2CCCN2S(=O)(=O)c2ccc(C)cc2)cc1 (stereo not drawn)	i	-15%
O=c1nc2ccccc2c2n1CC(CN1CCN(C(c3ccccc3)c3ccccc3)CC1)N2 (stereo not drawn)	-7%	-19%
NNC(=O)c1ccc(Cn2cc(Br)cn2)cc1	-13%	2%
Cc1cccc(C)c1NC(=O)C(c1cccc2ccccc12)n1c(=O)c(-c2cc3ccccc3[nH]2)nc2ccccc21 (stereo not drawn)	-6%	-13%
Cc1cn2c(=O)c(S(=O)(=O)Nc3ccc(OC(F)(F)F)cc3)c(C)nc2s1	i	-16%
O=C(c1ccco1)c1n[nH]nc1-c1ccccc1	-18%[1.46 µM]	-1%
CCOC(=O)c1cccc(NC(=O)CC2C(=O)N(c3ccccc3)C(=O)N2Cc2ccco2)c1 (stereo not drawn)	-7%	0%
COc1ccc(NC(=O)C[C@H]2C(=O)N(C3CCCCC3)C[C@@H]2c2ccccc2)cc1	-11%	-15%
CC(C)(C)C(=O)Nc1ccc2nc(SCCOc3ccccc3Cl)sc2c1	-7%	-23%
S=C(NCCCCNC(=S)NCc1ccccc1)NCc1ccccc1	-7%	-8%
CCN(C(=O)COC(=O)c1[nH]c(=O)[nH]c(=O)c1N)c1ccccc1	8%	4%
CC12CN3CN(C1)CC(c1ccccc1)(C3)C2=O	·	-5%
N[C@H](C(=O)O)[C@@H]1CC(Cl)=NO1	2µM*	?
CC(C)NC(=O)CCCc1c[nH]c2ccccc12	i	-16%
CCOC(=O)c1nnn(-c2nc(OC)nc(N3CCCC3)n2)c1-c1ccccc1	-2%	-3%
COC(=O)Cc1cc(=O)n2[nH]c(C)cc2n1	1%	-2%
Cc1ccccc1NC(=O)c1ccc(CNS(=O)(=O)c2ccc3c(c2)C(C)(C)C(=O)N3C)cc1	-4%	-7%
Cc1ccc(N2C(=O)C(CN3CCCC3)C2c2ccccc2)cc1 (stereo not drawn)	i	-9%

Remaining list, next part.
SMILES	VACV mCherry inh	Vaccinia Venus
COC(=O)c1ccc(NC(=O)Cn2c(-c3nonc3N)nc3ccccc32)cc1	-14%	2%
Cc1occc1C(=O)N1CCN(Cc2ccccc2)CC1	-14%	-4%
CN(C(=O)c1cccc(NC(=O)Cc2ccc(NC(=O)C3CCCN(C(=O)C4CCCC4)C3)cc2)c1)C1CC1 (stereo not drawn)	-1%	-4%
CCCCNc1ccc2c3c(cccc13)C(=O)N(CCCC)C2=O	?	213%[activator]
CC(=O)Nc1ccc(C(=O)N(C)C(C(=O)Nc2ccccc2)c2ccccn2)cc1 (stereo not drawn)	-15%	-8%
Cc1cc2nn(-c3ccc(Cl)cc3)nc2cc1N	-11%	-4%
CCOC(=O)N1CCC(N2C(=O)c3ccccc3C2Nc2cc(C(=O)OC)cc(C(=O)OC)c2)CC1 (stereo not drawn)	-18%	-6%
COC(=O)[C@@]12C[C@@H](CC(=O)NCC34CC5CC(CC(C5)C3)C4)C(=O)N(Cc3ccccc3)C1=CCC(C)(C)C2	-12%	-25%
O=C(Nc1ccccn1)c1cc2ccccc2cc1O	?	8%
C[C@]12CC[C@@H](O)C[C@@H]1CC[C@@H]1[C@@H]2CC[C@]2(C)C(=O)[C@H](O)C[C@@H]12	-9%	-9%
CC[C@]12c3[nH]c4cc(CCC(=O)N(C)C)ccc4c3CCN1C(=O)[C@@H](CC(=O)NCCc1ccccn1)C[C@@H]2C(=O)N1CCN(C(=O)C2CC2)CC1	i	-6%
O=C(c1ccccc1-c1nc(-c2ccccc2)no1)N1CCCC1	·	-4%
COP(=O)(OC)OC(C(=O)c1ccccc1)c1ccccc1 (stereo not drawn)	-4%	-1%
Cc1cc2oc(=O)cc(CN3CCCC3)c2cc1C	22%	-3%
Cc1ccc(C)c(NC(=O)Cn2c(=O)n(Cc3ccco3)c(=O)c3ccc(C(=O)NC4CCCC4)cc32)c1	-24%	-25%
O=C(CSc1nnc(SCc2ccc(F)cc2)s1)Nc1ccc(C(=O)O)cc1	-6%	12%
CC1CN=C(N(C(=S)Nc2ccccc2)c2cccc(C(F)(F)F)c2)S1 (stereo not drawn)	-30%	4%
CC(NS(=O)(=O)c1ccc2[nH]c(=O)c(=O)[nH]c2c1)C(=O)O (stereo not drawn)	-1%	-9%
Cc1ccc(C(=O)NNC2CC(=O)N(c3ccc4c(c3)OCCO4)C2=O)cc1 (stereo not drawn)	-16%	-3%
CCC(=O)Nc1ccc(N2CCN(CC)CC2)c(Cl)c1	i	-7%
C[C@]12CC[C@H](O)CC1C(=O)CC1C2CC[C@@]2(C)C1CC[C@@H]2O (stereo partly drawn)	i	-7%
CN(C)C(=O)Oc1cccc(NC(=O)c2ccccc2C(F)(F)F)c1	i	-13%
Cc1ccc(NC(=O)CSc2nc3nc(C)c(Cc4ccccc4)c(C)n3n2)cc1	-7%	-12%
O=C(/C=C/c1cccc([N+](=O)[O-])c1)N1CCN(Cc2ccc3c(c2)OCO3)CC1	-20%	-2%
O=C(COc1ccc(Cl)cc1Br)N1CCN(c2ccccc2)CC1	·	-21%
O=c1onc(-c2ccc(Cl)cc2)n1Cc1ccc(F)cc1	i	-4%
CC(=O)Oc1ccc2c(c1)OC(c1ccccc1)CC21CC(C)(C)NC(=O)N1 (stereo not drawn)	-3%	-11%
Cc1ccc(C)c(NC(=O)C2CC=CCC2C(=O)O)c1 (stereo not drawn)	·	-2%
CCOC(=O)N1CCC(NC(=O)c2cnn(-c3cccc(F)c3)c2-n2cccc2)CC1	-5%	-10%
O=C(Nc1ccccc1-c1nc2ccccc2s1)c1cc(Cl)cc(Cl)c1	-5%	-14%
CCN1CCN(C(=S)c2ccc([N+](=O)[O-])cc2)CC1	i	-9%
CCN(CC)S(=O)(=O)c1ccc(N2CCCCC2)c(NC(=O)C2CCN(C(=O)c3ccc(F)cc3)CC2)c1	i	-5%
C[C@@H]1C(=O)O[C@@H]2[C@H](O)C34[C@@H]5OC(=O)C3(O[C@H]3OC(=O)[C@H](O)C34[C@H](C(C)(C)C)[C@H]5O)[C@@]12O (stereo partly drawn)	i	-13%
O=c1[nH]c2ccccc2o1	-12%	-9%
COc1ccc(Nc2nc3ccc(C)cc3nc2-n2nc(C)cc2C)cc1Cl	-10%	-11%
CC1(C(=O)O)CCN1C(=O)c1cccc(C(F)(F)F)c1 (stereo not drawn)	1%	-5%
CCN(CC)c1c(-c2ccccc2)c2cc(C)ccc2[nH]c1=O	-6%	-16%
CN=C(Nc1ccc(C)c(C)c1)SC1CC(=O)N(c2ccc(OC)cc2)C1=O (stereo not drawn)	i	-15%
Cc1ccc(S(=O)(=O)CCC(=O)OCC(=O)N2c3ccccc3NC(=O)C2(C)C)cc1	-1%	-14%
O=C1CC(c2ccccc2)Oc2ccccc21 (stereo not drawn)	-2%&-5%	-12%&0%
COc1cccc(CNC(=O)C2CCN(S(=O)(=O)N3CC(C)CC(C)C3)CC2)c1 (stereo not drawn)	i	-12%
CCOc1ccc(NC(=O)CC2SC(N)=NC2=O)c([N+](=O)[O-])c1 (stereo not drawn)	-18%	-5%
C[C@H](NC(=O)c1[nH]cnc1C(=O)Nc1ccon1)c1ccccc1	-25%	-23%
COc1cc(S(=O)(=O)Nc2ccccn2)ccc1F	i	-13%
Cc1ccc(NC(=O)CN2C(=O)c3ccccc3Sc3ccc(C(=O)N4CCOCC4)cc32)c(Cl)c1	-6%	-15%
CCc1ccccc1Nc1nc(N)nc(CSc2nnc3ccccn23)n1	-13%	-9%
COCCN1C(=O)N[C@@H](c2cccc(C(F)(F)F)c2)C(C(=O)OC)=C1C	i	-7%
CC(=O)NS(=O)(=O)c1ccc(NS(=O)(=O)c2ccccc2[N+](=O)[O-])cc1	-13%	-12%
CC(=O)N1c2ccccc2C(CBr)=CC1(C)C	-5%	-3%
COc1ccc(CNCCc2c[nH]c3ccccc23)c(OC)c1OC	-28%	-5%

New compounds follow
SMILES	VACV mCherry inh	Vaccinia Venus
CCN(CC)S(=O)(=O)c1cccc(NC(=O)CN2C(=O)c3ccc([N+](=O)[O-])cc3C2=O)c1	-5%	-17%
O=C(CCNS(=O)(=O)c1ccc(Br)cc1)NNC(=O)C1COc2ccccc2O1 (stereo not drawn)	-5%	-3%
CCCCn1c(SCC(=O)N2CCOCC2)nc2ccccc2c1=O	-8%	3%
COc1ccc(NS(=O)(=O)c2cc(NC(=O)C3CCCO3)ccc2N2CCCC2)cc1 (stereo not drawn)	i	-3%

15 entries from above, with bars between the fields.
structure | VACV mCherry inh | Vaccinia Venus
O=C1CC(c2ccccc2)Oc2ccccc21 (stereo not drawn) | -2%&-5% | -12%&0%
COc1cccc(CNC(=O)C2CCN(S(=O)(=O)N3CC(C)CC(C)C3)CC2)c1 (stereo not drawn) | i | -12%
CCOc1ccc(NC(=O)CC2SC(N)=NC2=O)c([N+](=O)[O-])c1 (stereo not drawn) | -18% | -5%
C[C@H](NC(=O)c1[nH]cnc1C(=O)Nc1ccon1)c1ccccc1 | -25% | -23%
COc1cc(S(=O)(=O)Nc2ccccn2)ccc1F | i | -13%
Cc1ccc(NC(=O)CN2C(=O)c3ccccc3Sc3ccc(C(=O)N4CCOCC4)cc32)c(Cl)c1 | -6% | -15%
CCc1ccccc1Nc1nc(N)nc(CSc2nnc3ccccn23)n1 | -13% | -9%
COCCN1C(=O)N[C@@H](c2cccc(C(F)(F)F)c2)C(C(=O)OC)=C1C | i | -7%
CC(=O)NS(=O)(=O)c1ccc(NS(=O)(=O)c2ccccc2[N+](=O)[O-])cc1 | -13% | -12%
CC(=O)N1c2ccccc2C(CBr)=CC1(C)C | -5% | -3%
COc1ccc(CNCCc2c[nH]c3ccccc23)c(OC)c1OC | -28% | -5%
CCN(CC)S(=O)(=O)c1cccc(NC(=O)CN2C(=O)c3ccc([N+](=O)[O-])cc3C2=O)c1 | -5% | -17%
O=C(CCNS(=O)(=O)c1ccc(Br)cc1)NNC(=O)C1COc2ccccc2O1 (stereo not drawn) | -5% | -3%
CCCCn1c(SCC(=O)N2CCOCC2)nc2ccccc2c1=O | -8% | 3%
COc1ccc(NS(=O)(=O)c2cc(NC(=O)C3CCCO3)ccc2N2CCCC2)cc1 (stereo not drawn) | i | -3%
